2A StopGo = FMDV 2A StopGo reporter, luciferase signal. human cells with a luciferase reporter of 2A StopGo recoding; control for the full effect not named in the record. Potency, µM (top dose mostly 57.9 µM), inactives show at the highest dose signal change, negative = less light. actives 1.2% (n = 410,000); active = well fitted falling curve with a large enough effect; inconclusive = small, poorly fitted or top-dose-only effect; inactive = no such curve, though single readings can be large or run the other way; tested in HEK293T cells; also: % is scaled to controls: 0 for no effect and ±100 for the full control effect; nearly all actives have a fitted effect of over 45% in size; luciferase light after 4 h
Cruzain inh Det = inhibitors of Trypanosoma cruzi cruzain with detergent; purified cruzain, Z-FR-AMC fluorescence, 0.01% Triton; Potency, µM, inactives show max response, negative = inhibition, actives largely listed as inhibitors; actives 0.43% (n = 200,000); AID 1478; active = well fitted curve in the direction sought with a large enough effect; inconclusive = small, poorly fitted or top-dose-only effect, or another doubt; inactive = no such curve, though single readings can be large; an effect the other way counts as inactive or inconclusive;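 also: plate controls were neutral wells for no effect and buffer without enzyme for full effect; nearly all actives have a fitted effect of over 40% in size; top concentration of the series not given in the record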
Target sequence (P25779 123-467 limits assumed): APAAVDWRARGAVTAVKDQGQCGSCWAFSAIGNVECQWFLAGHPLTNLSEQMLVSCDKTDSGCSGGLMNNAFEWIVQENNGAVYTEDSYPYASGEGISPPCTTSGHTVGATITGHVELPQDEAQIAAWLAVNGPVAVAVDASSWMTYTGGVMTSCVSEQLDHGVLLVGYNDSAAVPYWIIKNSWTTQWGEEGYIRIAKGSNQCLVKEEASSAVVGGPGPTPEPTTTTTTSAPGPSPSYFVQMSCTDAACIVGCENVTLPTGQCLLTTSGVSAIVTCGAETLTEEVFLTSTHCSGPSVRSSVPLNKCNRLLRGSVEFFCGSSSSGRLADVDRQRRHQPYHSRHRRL
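Cruzain (1.5 nM) preincubated 15 min at RT with compound in 100 mM sodium acetate pH 5.5, 5 mM DTT, 0.01% Triton X-100. Reaction started with 2 uM Z-FR-AMC; AMC fluorescence (ex 360/em 450 nm) change over 60 s gave rate.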
SARS PLpro yeast = SARS-CoV PLP inhibition in yeast. AID 485353. S. cerevisiae expressing SARS-CoV PLpro, growth rescue; control for the full effect not named in the record. actives 0.19% (n = 330,000). Potency, µM (doses to about 32.9 µM), inactives show top-dose activity, positive = growth rescue; also: 0% is about no effect; nearly all actives have a fitted effect of over 55% in size; growth read by luminescence after 48 h
Lassa entry inh = Lassa virus entry inhibition | Lassa virus pseudotype entry inhibition, cell reporter; control for the full effect not named in the record | Potency, µM (top dose mostly 37.9 µM), for the others: at the highest dose activity change, negative = inhibition, actives largely listed as inhibitors | actives 1.2% (n = 300,000) | AID 540256; active means well fitted inhibition curve with a large enough effect; inconclusive means small, poorly fitted or top-dose-only effect, or effect the other way; inactive means flat fitted curve, though single readings scatter; tested in HEK293 cells; also: % is scaled to controls: 0 for no effect and ±100 for the full control effect; nearly all actives have a fitted effect of over 50% in size; luciferase read-out
MARV entry inh = inhibitors of Marburg virus binding or cell entry. Marburg virus pseudotyped entry inhibition, cell reporter; control for the full effect not named in the record; about a third of the inactives were read at about 46 µM. Potency, µM (series often up to 37.8 µM), without a hit: at the highest dose activity change, negative = inhibition, hits mostly inhibitors. actives 1.8% (n = 300,000). AID 540276; active = well fitted inhibition curve with a large enough effect; inconclusive = small, poorly fitted or top-dose-only effect, or effect the other way; inactive = flat fitted curve, though single readings scatter; tested in HEK293 cells; about a fifth of its hits are not listed in these tables; also: % is scaled to controls: 0 for no effect and ±100 for the full control effect; luciferase read-out
NS1 function inh = blocks influenza NS1 protein function. S. cerevisiae slowed by influenza A NS1, growth recovery by OD600. AID 2326. Potency, µM (series often up to 46.1 µM), for the others: at the highest dose activity, positive = more growth. actives 0.4% (n = 270,000); also: actives are rising curves; nearly all actives have a fitted effect of over 50% in size
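A cell-based growth assay was used: compounds that relieve NS1-induced slow growth of budding yeast raise OD600. Assay medium was yeast nitrogen base with ammonium sulphate and -URA supplement, pH 6.0, with 2% galactose.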
RE007 growth inh = less growth of the S. pombe RE007 Vpr strain; actives 0.21% (n = 360,000); Potency, µM (series often up to 92.2 µM), for the others: at the top dose activity change, negative = less growth; S. pombe RE007 Vpr strain, BacTiter-Glo ATP luminescence, 24 h; control for the full effect not named in the record; active = well fitted falling curve with a large enough effect; inconclusive = small, poorly fitted or top-dose-only effect; inactive = no such curve, though single readings can be large or run the other way;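 also: % is scaled to controls: 0 for no effect and ±100 for the full control effect; nearly all actives have a fitted effect of over 50% in size; the assay follows cell death caused by Vpr and the record does not say whether a fall means rescue or toxicity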
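Fission yeast RE007 carrying one integrated HIV-1 vpr copy, seeded at OD 0.01 in PMG+AL medium with 23 nL pinned compound. Grown 24 h at 30 degrees; viability read by BacTiter-Glo luminescence after 5 min.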
Cruzain noTriton = blocks cruzain activity in detergent-free assay | actives 2.3% (n = 200,000) | purified cruzain, Z-FR-AMC fluorescence, no detergent | Potency, µM, without a hit: max response, negative = inhibition, hits mostly inhibitors | P25779; active = well fitted curve in the direction sought with a large enough effect; inconclusive = small, poorly fitted or top-dose-only effect, or another doubt; inactive = no such curve, though single readings can be large; an effect the other way counts as inactive or inconclusive;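 also: plate controls were enzyme without inhibitor for no effect and buffer without enzyme for full effect; nearly all actives have a fitted effect of over 40% in size; top concentration of the series not given in the record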
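Purified cruzain at 1.5 nM, pre-incubated 15 min with compound at room temperature in 100 mM sodium acetate pH 5.5, 5 mM DTT, 0.00005% Triton X-100. Reaction started with 2 uM Z-FR-AMC; AMC fluorescence increase over 60 s gives rate.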
Active calls of the source: *; ? = inconclusive; / = no result given; & = joins results of further samples; [ ] = another dose, or the depositor's remark. Unless noted, calls follow the shape of the dose curve; as a rule, active means well fitted rising curve with a large enough effect; inconclusive means small, poorly fitted or top-dose-only effect; inactive means no such curve, though single readings can be large or run the other way. Potency is read from the fitted curve at half-maximal effect.

Below each compound – MARV entry inh	Cruzain inh Det	2A StopGo	Lassa entry inh	NS1 function inh	Cruzain noTriton	SARS PLpro yeast	RE007 growth inh
COc1cc(CNc2ccc(N3CCN(C(C)=O)CC3)cc2)ccc1OCc1ccccc1
    ?	/	-27%	?	9%	/	-3%	-30%
COc1ccccc1CNC(=O)C(=O)NCC1OCCCN1S(=O)(=O)c1cccs1 (stereo not drawn)
    -1%[46.1 µM]	/	0%	-6%[46.1 µM]	2%	/	-7%	11%
CSc1cccc(NC(=O)c2ccc(NC3=NC4CS(=O)(=O)CC4S3)cc2)c1 (stereo not drawn)
    /	/	-6%	/	5%	/	-9%	-3%
CCn1cc(C(=O)NCc2ccccn2)c(=O)c2cc(S(=O)(=O)N3CCCCC3)ccc21
    -3%	-5.1%	/	/	-13%	?	8%	/
CC(=O)N1CCC2(CC1)C(C#N)=C(N)Oc1c2sc2nc(C)cc(C)c12
    1%	-4.0%	-12%	?	1%	-10%	-1%	-7%
Cc1cccc(Cn2cc3c(=O)n(CC(=O)Nc4ccc(C)c(F)c4)nc-3c3cc(F)ccc32)c1
    /	-1.6%	1%	-2%[46.1 µM]	/	-12%	/	/
COc1ccc(C2N(c3ccccc3)C(=S)N3CCCN23)cc1 (stereo not drawn)
    ?	2.9%	-17%	-4%	?	18%	17%	4%
COc1cccc(NC(=O)CNCc2ccccc2)c1
    /	/	0%	/	-4%	/	7%	3%
COC(=O)CNC(=O)COC(=O)C(Cc1ccccc1)NC(=O)c1ccco1 (stereo not drawn)
    1%	-17%	4%	14%	-12%	?	-3%	19%
COc1ccc(CCNC(=O)c2cc3ccccc3oc2=O)cc1
    -20%	/	79%[activator]	-19%	-47%	/	-7%	7%
N#CC(c1ccccn1)(c1ncc(C(F)(F)F)cc1Cl)N1CCOCC1 (stereo not drawn)
    0%	-0.2%	17%	-40%[14.3 µM]	-6%	-1%	6%	-2%
Cc1[nH]n(-c2nc(-c3ccccc3)cc(=O)[nH]2)c(=O)c1CCO
    ?	/	-9%	0%	/	/	1%	4%
COc1ccc(C)cc1NC(=O)c1ccc2c(=O)n3c(nc2c1)CCCCC3
    -6%&14%[46.1 µM]	-1.6%	-5%&-12%	-2%&3%[46.1 µM]	1%	-7%	-6%	-11%
CCc1nnc(SCC(=O)Nc2ccc3c(c2)OCO3)n1CC
    15%	/	-5%	?	13%	/	1%	-6%
CCOc1ccc(/C=C/c2nc3ccccc3n2S(=O)(=O)c2cccc(Cl)c2)cc1
    ?	-8.8%	-16%	-2%[46.1 µM]	/	-1%	/	/
CCCCSC(=O)Nc1ccccc1
    22%[46.1 µM]	-1.7%	41%[activator]	-4%	-9%	11%	4%	?
C=CCNC(=O)c1c(N)n(CCN2CCOCC2)c2nc3ccccc3nc12
    -10%	-6.6%	/	28%	-4%	?	-2%	9%
CCC(C)[C@H](NC(=O)NCc1cccs1)C(=O)O (stereo partly drawn)
    14%	1.9%	16%	?	-1%	-3%	2%	-21%
N#CCOc1ccccc1P(=O)(c1ccccc1)c1ccccc1
    /	/	-18%	/	-5%	/	0%	7%
CCCSc1cc(N2CCOCC2)nc(-c2ccccc2Cl)n1
    -1%	-0.4%	?	-1%	-80%	4%	-21%	-10%
O=C1/C(=C/c2cccnc2)SC(=S)N1c1ccccc1
    7%	-6.9%	-7%	/	-1%	10%	-3%	5%
COc1ccc2c(c1)c1c(c(=O)n(Cc3ccccc3)c(=O)n1CC(=O)Nc1ccccc1OC)n2C
    /	-0.9%	6%	9%[46.1 µM]	/	1%	/	/
CCCCn1c(N)c(N(CCOC)C(=O)c2cc(-c3ccncc3)nc3ccccc23)c(=O)[nH]c1=O
    12%	/	0%	10%	2%	/	28%	7%
O=C(CSc1nnc(NC(=O)c2ccccc2[N+](=O)[O-])s1)NCC1CCCO1 (stereo not drawn)
    1%	/	10%	1%	11%	/	6%	-1%
CNC(=O)N(O)C1N(/N=C/c2ccc(C)cc2)C(=S)SC1(C)C (stereo not drawn)
    /	/	43%[activator]	/	4%	/	0%	24%
N=c1c(C(=O)NC2CCCCC2)cc2c(=O)n3ccccc3nc2n1Cc1ccccc1
    /	/	-11%	/	3%	/	-6%	-10%
C=CCNC(=S)Nc1ccc2cn[nH]c2c1
    -1%[46.1 µM]	/	-6%	17%	1%	/	0%	1%
O=C(OCC(=O)N1CCCC1)c1ccco1
    8%	-0.2%	19%	8%	3%	-5%	0%	14%
Cc1cc(S(=O)(=O)N(Cc2ccc(F)cc2)CC2CCCO2)ccc1-n1cnnn1 (stereo not drawn)
    1%	-2.4%	/	?	-12%	2%	2%	8%
O=C(NCC(=O)N(c1ccccc1)C(C(=O)NC1CCCCC1)c1cccnc1)c1cccs1 (stereo not drawn)
    0%[46.1 µM]	/	29%	-19%[46.1 µM]	?	/	0%	-20%
COc1ccccc1NS(=O)(=O)c1cccc(C(=O)N/N=C(\C)c2ccc(-n3ccnc3)cc2)c1
    ?	-0.8%	?	?	9%	-2%	11%	-5%
CCOC(=O)c1c(C)[nH]c(C(=O)OCC(=O)Nc2cc(C)nn2-c2ccccc2)c1C
    ?	/	-13%	1%	/	/	-2%	-7%
O=C(NCCc1ccccc1)C(c1cccs1)N(C(=O)CCl)c1ccc(Cl)cc1 (stereo not drawn)
    ?	-1.8%	35µM*	18µM*	-13%	-12%	-75%	7%
CC1=C(c2ccc(C)c(C)c2)S(=O)(=O)NC1=NCc1ccccc1Cl
    ?	-5.4%	40%[activator]	?	/	-1%	/	/
O=C(NCc1cccnc1)c1cccc(S(=O)(=O)Nc2ccc(F)cc2)c1
    -29%	/	14%	-17%	/	/	-7%	3%
C#Cc1ccc([C@@H]2C=C(C(=O)NC3CC3)O[C@H](OCC)[C@H]2CCCO)cc1
    /	/	-24%	/	1%	/	3%	3%
O=C(N=Nc1c(O)[nH]c2ccc(Br)cc12)c1ccccc1-n1cccc1
    ?	-3.4%	?	?	7%	-30%	-12%	17%
CCN(CC)CCCn1c(SCC(=O)NCC2CCCO2)nc2ccccc2c1=O (stereo not drawn)
    -15%[46.1 µM]	/	-7%	13%	/	/	3%	-7%
O=C(CSc1nc2ccccc2c(=O)n1CC1CCCO1)NCc1ccc2c(c1)OCO2 (stereo not drawn)
    -3%[46.1 µM]	/	-1%	/	8%	/	-1%	3%
COc1ccc(OC)c(S(=O)(=O)NCc2ccc3c(c2)CCN3C(=O)c2cccc(C)c2)c1
    /	-1.2%	-8%	?	/	11%	/	/
O=C(NCCCn1ccnc1)/C(=C\c1cccs1)NC(=O)c1ccccc1
    -27%	-2.0%	13%	7%	-10%	-6%	-16%	0%
CC(C)CN(C(=O)CSc1nncs1)c1c(N)n(CC(C)C)c(=O)[nH]c1=O
    10%	2.3%	-12%	15%	3%	4%	7%	-5%
CCOc1cc(NS(C)(=O)=O)c(OCC)cc1NC(=O)c1cccs1
    -7%	1.6%	-2%	4%	-11%	1%	-4%	9%
O=C(Cc1ccccc1)Nc1ccccc1CO
    20%	2.7%	-17%	-6%	6%	-12%	2%	3%
CN1CCC(C2(O)c3ccccc3CSc3sccc32)CC1 (stereo not drawn)
    -22%[46.1 µM]	-0.3%	-16%	-18%	5%	-8%	10%	0%
COc1cccc(-c2nn(-c3ccccc3)cc2/C=C(/NC(=O)c2ccccc2)C(=O)O)c1
    0%[46.1 µM]	/	-1%	1%	-5%	/	-3%	7%
O=C(Cn1c(CN2CCCCC2)nc2ccccc2c1=O)NCc1ccco1
    -6%	1.3%	/	-7%	3%	2%	3%	-20%
CC(C)(CNC(=O)c1sc2cc(F)ccc2c1Cl)N1CCOCC1
    5%	0.2%	-5%	13%	0%	13%	?	-10%
COc1ccc(S(=O)(=O)NCC(=O)N(Cc2ccco2)C(C(=O)NC(C)(C)C)C(C)C)cc1 (stereo not drawn)
    ?	/	15%	-1%[46.1 µM]	-4%	/	-1%	0%
Nc1c(C(=O)c2ccc(Br)cc2)oc2ccccc12
    0%	-2.4%	19%	11%	-13%	-2%	-8%	-3%

(more compounds)
Below each compound – MARV entry inh	Cruzain inh Det	2A StopGo	Lassa entry inh	NS1 function inh	Cruzain noTriton	SARS PLpro yeast	RE007 growth inh
CC(C)NC(=O)COC(=O)c1cc(F)c(F)cc1Cl
    7%[46.1 µM]	4.0%	16%	-2%	8%	6%	11%	6%
CC(=O)OCC(=O)Nc1ccc(C(C)=O)cc1
    7%[46.1 µM]	-1.0%	22%	1%	-5%	2%	4%	8%
COc1ccc(C2CC(O)(c3ccccc3)Oc3c(C)ccc(C)c32)cc1 (stereo not drawn)
    /	/	?	/	-94%	/	-6%	22%
O=C(Cn1ccc([N+](=O)[O-])n1)NCc1ccco1
    17%	2.0%	/	18%	0%	-5%	-1%	-16%
CCC(C)NC(=S)NNC(=O)c1ccc(C(C)(C)C)cc1 (stereo not drawn)
    -8%	-2.5%	-1%	-23%	-4%	0%	8%	10%
CCOC(=O)Cc1nnc2c(Nc3ccc(C)cc3)nc3nonc3n12
    -4%	-1.0%	?	-3%	-32%	-8%	-11%	17%
O=C(COc1ccc(Cl)cc1)N1N=C(c2cccs2)CC1c1ccco1 (stereo not drawn)
    -19%[46.1 µM]	/	-28%	-11%	/	/	/	9%
Brc1ccc(-c2cc3c(N4CCN(c5ccccc5)CC4)nccn3n2)cc1
    2%[46.1 µM]	-1.3%	-3%	23%[46.1 µM]	/	0%	/	/
CCOC(=O)C1CCCN(C/C(O)=C(\C#N)c2nc(-c3ccccc3)cs2)C1 (stereo not drawn)
    9%	-5.3%	/	5%	0%	-5%	2%	-11%
COc1cc(-c2nnc(-c3cccnc3)o2)cc(OC)c1OC
    4%	-2.8%	1%	-11%	-9%	-5%	1%	4%
CCOC(=O)c1cn(Cc2ccc(Cl)cc2Cl)c2cc(C)nn2c1=O
    ?	/	-11%	?	2%	/	2%	-2%

Screening data deposited in PubChem BioAssay by National Center for Advancing Translational Sciences (NCATS).
